# NS1 inh: influenza NS1 inhibition; S. cerevisiae slowed by influenza A NS1, growth recovery by OD600; Potency, µM (highest dose often 46.1 µM), inactives show at the highest dose activity, positive = more growth; 0.4% of 270,000 active; AID 2326; also: actives are rising curves; nearly all actives have a fitted effect of over 50% in size
#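 Compounds were scored for reversing the slow growth caused by influenza A NS1 in S. cerevisiae, measured by optical density at 600 nm. Assay medium contained 2% galactose at pH 6.0; NS1-free yeast of the same strain were the positive control.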
# StopGo reporter: FMDV 2A StopGo reporter, luciferase signal | human cells with a luciferase reporter of 2A StopGo recoding; control for the full effect not named in the record | Potency, µM (highest dose often 57.9 µM), inactives show top-dose signal change, negative = less light | 1.2% of 410,000 active | AID 1159524; active = well fitted falling curve with a large enough effect; inconclusive = small, poorly fitted or top-dose-only effect; inactive = no such curve, though single readings can be large or run the other way; tested in HEK293T cells; also: % is scaled to controls: 0 for no effect and ±100 for the full control effect; nearly all actives have a fitted effect of over 45% in size; luciferase light after 4 h
# Cruzain noTriton: inhibitors of Trypanosoma cruzi cruzain without detergent; AID 1476; 2.3% of 200,000 active; purified cruzain, Z-FR-AMC fluorescence, no detergent; Potency, µM, without a hit: max response, negative = inhibition, most hits filed as inhibitors; active = well fitted curve in the direction sought with a large enough effect; inconclusive = small, poorly fitted or top-dose-only effect, or another doubt; inactive = no such curve, though single readings can be large; an effect the other way counts as inactive or inconclusive;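 also: plate controls were enzyme without inhibitor for no effect and buffer without enzyme for full effect; nearly all actives have a fitted effect of over 40% in size; top concentration of the series not given in the record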
# Target sequence (P25779 123-467 limits assumed): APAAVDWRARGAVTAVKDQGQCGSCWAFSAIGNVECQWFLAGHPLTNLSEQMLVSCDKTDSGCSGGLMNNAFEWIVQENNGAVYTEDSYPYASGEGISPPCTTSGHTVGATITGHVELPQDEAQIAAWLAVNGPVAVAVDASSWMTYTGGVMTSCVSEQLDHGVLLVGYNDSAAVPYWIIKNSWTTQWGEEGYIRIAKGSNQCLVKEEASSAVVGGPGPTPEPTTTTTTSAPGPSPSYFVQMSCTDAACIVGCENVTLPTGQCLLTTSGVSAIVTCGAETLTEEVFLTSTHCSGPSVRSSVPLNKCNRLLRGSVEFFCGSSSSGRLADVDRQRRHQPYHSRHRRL
#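 Purified cruzain at 1.5 nM, pre-incubated 15 min with compound at room temperature in 100 mM sodium acetate pH 5.5, 5 mM DTT, 0.00005% Triton X-100. Reaction started with 2 uM Z-FR-AMC; AMC fluorescence increase over 60 s gives rate.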
# RE007 growth inh: less growth of the S. pombe RE007 Vpr strain. S. pombe RE007 Vpr strain, BacTiter-Glo ATP luminescence, 24 h; control for the full effect not named in the record. Potency, µM (top dose mostly 92.2 µM), for inactives: top-dose activity change, negative = less growth. 0.21% of 360,000 active; active = well fitted falling curve with a large enough effect; inconclusive = small, poorly fitted or top-dose-only effect; inactive = no such curve, though single readings can be large or run the other way;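 also: % is scaled to controls: 0 for no effect and ±100 for the full control effect; nearly all actives have a fitted effect of over 50% in size; the assay follows cell death caused by Vpr and the record does not say whether a fall means rescue or toxicity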
#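 Fission yeast strain RE007, carrying one chromosomally integrated HIV-1 vpr copy, was seeded at OD 0.01 in PMG+AL medium with 23 nL pinned compound. After 24 h at 30 °C and 99% humidity, viability was read by BacTiter-Glo luminescence.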
# Marburg entry inh: Marburg virus entry inhibition; Marburg virus pseudotyped entry inhibition, cell reporter; control for the full effect not named in the record; about a third of the inactives were read at about 46 µM; Potency, µM (series often up to 37.8 µM), without a hit: top-dose activity change, negative = inhibition, actives largely listed as inhibitors; 1.8% of 300,000 active; AID 540276; active = well fitted inhibition curve with a large enough effect; inconclusive = small, poorly fitted or top-dose-only effect, or effect the other way; inactive = flat fitted curve, though single readings scatter; tested in HEK293 cells; about a fifth of its hits are not listed in these tables; also: % is scaled to controls: 0 for no effect and ±100 for the full control effect; luciferase read-out
# Cruzain inh Det: blocks cruzain activity in presence of Triton detergent; P25779; Potency, µM, for the others: max response, negative = inhibition, most hits filed as inhibitors; purified cruzain, Z-FR-AMC fluorescence, 0.01% Triton; 0.43% of 200,000 active; active = well fitted curve in the direction sought with a large enough effect; inconclusive = small, poorly fitted or top-dose-only effect, or another doubt; inactive = no such curve, though single readings can be large; an effect the other way counts as inactive or inconclusive;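 also: plate controls were neutral wells for no effect and buffer without enzyme for full effect; nearly all actives have a fitted effect of over 40% in size; top concentration of the series not given in the record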
#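 Z-FR-AMC hydrolysis (2 uM substrate) by cruzain (1.5 nM) monitored kinetically at ex 360/em 450 nm after 15 min room-temperature compound exposure; 0.01% Triton X-100, pH 5.5, 5 mM DTT.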
# SARS PLpro yeast: blocks SARS-CoV papain-like protease in a yeast assay; S. cerevisiae expressing SARS-CoV PLpro, growth rescue; control for the full effect not named in the record; Potency, µM (titrated, usually from 32.9 µM), for the others: top-dose activity, positive = growth rescue; 0.19% of 330,000 active; AID 485353; also: 0% is about no effect; nearly all actives have a fitted effect of over 55% in size; growth read by luminescence after 48 h
# LASV entry inh: Lassa virus entry inhibition | Lassa virus pseudotype entry inhibition, cell reporter; control for the full effect not named in the record | Potency, µM (titrated, usually from 37.9 µM), for the others: at the highest dose activity change, negative = inhibition, most hits filed as inhibitors | 1.2% of 300,000 active | AID 540256; active means well fitted inhibition curve with a large enough effect; inconclusive means small, poorly fitted or top-dose-only effect, or effect the other way; inactive means flat fitted curve, though single readings scatter; tested in HEK293 cells; also: % is scaled to controls: 0 for no effect and ±100 for the full control effect; nearly all actives have a fitted effect of over 50% in size; luciferase read-out
# * marks the source's active call; other numbers are inactive results; ? = inconclusive; / = no result given; & = joins results of further samples; [ ] = dose if it differs, or a comment. Unless noted, calls follow the shape of the dose curve; as a rule, active means well fitted rising curve with a large enough effect; inconclusive means small, poorly fitted or top-dose-only effect; inactive means no such curve, though single readings can be large or run the other way. Potency is read from the fitted curve at half-maximal effect.
SMILES,NS1 inh,StopGo reporter,Cruzain noTriton,RE007 growth inh,Marburg entry inh,Cruzain inh Det,SARS PLpro yeast,LASV entry inh
CC[C@H](C)[C@@H](CN[C@H](C)CNC)NCCC(c1ccccc1)c1ccccc1,-5%,-25%,/,3%,/,/,-2%,/
O=[N+]([O-])c1ccccc1-n1cnc2ccccc21,0%,-12%,/,-4%,2%,/,-1%,-10%[46.1 µM]
CCN(CC)C(=O)C1CCC(C)(C(=O)O)C1(C)C (stereo not given),-6%,23%,4%,17%,-7%,3.6%,5%,?
CCC(COC(=O)c1cc(OC)c(OC)c(OC)c1)(c1ccccc1)N(C)C (stereo not given),7%,?,-2%&12%,-5%&3%&7%,0%&0%&0%,-2.5%&0.0%,-10%,-16%
CCSc1nnc(NC(=O)c2nc(-c3ccccc3)n(-c3ccccc3)n2)s1,-72%,0%,-5%,29%,6%[46.1 µM],-6.2%,-4%,2%
CCSc1nnc([C@@H](N)Cc2ccccc2)o1,-8%,-1%,-2%,3%,10%,0.6%,19%,4%
OCCC1CN(Cc2cnn(-c3ccccc3Cl)c2)CCN1Cc1ccsc1 (stereo not given),1%,-15%,/,-8%,5%[46.1 µM],/,0%,3%
COc1ccc(S(=O)(=O)NCC2CCC(C(=O)NCc3ccc(F)cc3)CC2)cc1 (stereo not given),3%,16%,/,4%,/,/,0%,/
O=C(c1cccc(Br)c1)N1CCN(C(=O)N2CCOCC2)CC1,-2%,-16%,-10%,12%,2%[46.1 µM],0.2%,9%,5%
CSCCC(NS(=O)(=O)c1ccccc1)C(=O)Nc1nccs1 (stereo not given),/,-7%,/,-5%,8%[46.1 µM],/,-7%,18%
Cc1nc(NCCN2CCOCC2)c2nnn(Cc3ccccc3Cl)c2n1,3%,-23%,15%,-9%,-11%,1.4%,1%,-16%
COCCSc1nnc(NC(=O)CS(=O)(=O)c2ccccc2)s1,-2%,49%[activator],/,-18%,0%[46.1 µM],/,-3%,4%[46.1 µM]
COc1ccc(CCNc2cc(C)nc3c(-c4ccccc4)c(C)nn23)cc1OC,-23%,0%,2%,/,-36%,-10%,-15%,1%
CCn1c(-c2cc(-c3cc(OC)ccc3OC)nc3ccccc23)n[nH]c1=S,15%,-21%,-12%,11%,-29%,-0.1%,5%,0%
CCCc1nc(-c2cc3ccc(C)cc3[nH]c2=O)no1,-2%,33%[activator],15%,8%,-24%,-3.6%,-1%,17%
Cc1cccc(N2C(=O)CC(Sc3nc(C)c4c(n3)CCCC4)C2=O)c1 (stereo not given),-7%,-13%,-4%,9%,-12%,1.8%,0%,15%
Cc1ccc(CS(=O)Cc2ccc(C(=O)N3CCN(c4ccccc4)CC3)o2)cc1 (stereo not given),5%,?,/,6%,/,/,-2%,/
COc1ccc(/C=C/C(=O)N2CCN(c3ccccn3)CC2)cc1,-21%,-2%,/,-19%,/,/,-1%,/
CC1CC(=O)N(CC(=O)NCc2ccccc2)c2ccccc2S1(=O)=O (stereo not given),1%,-7%,/,-1%,-16%[46.1 µM],/,/,7%[46.1 µM]
Cc1cc(-c2ccccc2)nc(N2CCC(C(=O)NCc3ccccc3Cl)CC2)n1,18%,/,?,/,/,0.5%,7%,/
Cc1ccc(/C=N/n2c(C3CCCCC3)n[nH]c2=S)cc1,-4%,-8%,/,-1%,11%,/,3%,?
CNc1nc2c(N)ncnc2n1[C@H]1O[C@@H](CO)[C@H](O)[C@@H]1O,5%,5%,/,2%,/,/,3%,/
CC1=C(C#N)C(Nc2ccc(Cl)cn2)(C(F)(F)F)C(=O)N1 (stereo not given),-20%,11%,7%,1%,0%,1.0%,-6%,14%
CC(NC1c2ccccc2-c2ccccc21)c1ccccc1 (stereo not given),-24%,-7%,/,-6%,?,/,-3%,-10%[46.1 µM]
Cc1ccc(S(=O)(=O)N(C)CC(=O)OCC(=O)N2CC(=O)Nc3ccccc32)cc1,-2%,-1%,/,2%,/,/,0%,/
# Continuation.
SMILES,NS1 inh,StopGo reporter,Cruzain noTriton,RE007 growth inh,Marburg entry inh,Cruzain inh Det,SARS PLpro yeast,LASV entry inh
CN(/N=C\c1ccc(O)c(O)c1)c1nc(-c2ccccc2)cc(-c2ccccc2)n1,8.9µM*,0%,?,-12%,?,-9.1%,-53%,?
COc1ccc(OCC2c3cc(OC)c(OC)cc3CCN2C(=O)C(C)C)cc1 (stereo not given),/,-27%,/,17%,-3%[46.1 µM],/,2%,-27%
CCN1C(=O)NC(c2ccc(Cl)cc2)C2=C1CCCC2=O (stereo not given),0%,-10%,/,-12%,6%[46.1 µM],/,0%,-15%[46.1 µM]
CCCCNC(=O)CCCCCn1c(=O)[nH]c2cc(C(=O)OC)ccc2c1=O,/,-1%,/,-8%,?,/,1%,0%
COCCNc1nc(SCc2ccccc2)nc2sc3c(c12)CCC3,18%,?,-2%,13%,-1%,0.0%,-13%,5%
Cc1cccc2c1OCC/C2=N\NC(=O)COc1ccccc1Cl,2%,63%[activator],6%,12%,3%,4.2%,7%,4%
Cc1c(C(=O)Nc2ccc(Br)cc2)cnn1C,-2%,21%,4%,2%,8%,-1.7%,-4%,?
COc1ccc(-n2c(CNCCc3ccc(C)cc3)nc3ccccc3c2=O)cc1,17%,-6%,/,3%,-23%,/,-7%,-20%
CCOC(=O)C1=C(CS(=O)(=O)c2ccccc2)NC(=O)NC1c1ccc(OC)c(OC)c1 (stereo not given),1%,-9%,/,16%,1%,/,1%,/
COc1ccc(CN2C(=O)c3cccnc3C2=O)cc1S(=O)(=O)NC1CCCCC1,-5%,21%,/,6%,/,/,-2%,/
COc1ccc(CCNC(=O)CCC2COc3ccccc3O2)cc1OC (stereo not given),-1%,13%,?,-6%,-1%,3.5%,-2%,?
CN(C(=O)CC(NC(=O)c1ccccc1Cl)c1ccccc1)c1ccccc1 (stereo not given),23%,-9%,/,9%,-17%,/,1%,-16%
CNC(=S)N1CCN(CCNC2=CC(=O)CC(C)(C)C2)CC1,-4%,-9%,/,-10%,/,/,2%,/
CC(C)(C)C(=O)CSc1nnc(-c2cccs2)n1CC1CCCO1 (stereo not given),1%,-9%,5%,12%,0%,-0.4%,6%[6.58 µM],9%
COc1ccccc1OC(=O)CN1C(=O)c2ccccc2C1=O,-21%,0%,-24%,2%,17%[46.1 µM],0.9%,8%,-4%
CC1(C)CC(=O)C2=C(C1)N=C1SCCC(=O)N1C2c1ccc(C(F)(F)F)cc1 (stereo not given),8%,-13%,17%,6%,8%,-4.8%,28%,-32%[14.3 µM]
CCn1cc(/C=N/NS(=O)(=O)c2ccc(C)cc2)c(C)n1,?,37%[activator],6%,45%,-19%,6.5%,1%,3%
Cc1ccccc1C(=O)Nc1ccc(C(=O)N/N=C/c2ccncc2)cc1,/,-20%,/,3%,-7%[46.1 µM],/,5%,-10%
CSCCC(NS(=O)(=O)c1ccc(C)cc1)C(=O)N1CCCCCCC1 (stereo not given),/,18%,/,-21%,-9%,/,-7%,0%
CC(C)(C)c1cc(C(=O)N/N=C/c2cc3c(cc2Br)OCO3)n[nH]1,1%,-21%,/,-1%,/,/,1%,/
COc1cccc(NC(=O)c2ccc(NS(=O)(=O)c3cccs3)cc2)c1,/,12%,/,-12%,?,/,7%,?
Cc1cnc(C(=O)OCc2ccc(COC(=O)c3cnc(C)cn3)cc2)cn1,/,-5%,/,-8%,?,/,6%,15%[46.1 µM]
CCSc1nc(-c2ccccc2)nc2c1Cc1c(CO)cnc(C)c1O2,/,-13%,-3%,/,/,0.1%,/,-2%[46.1 µM]
Cc1ccc(-c2noc(=O)n2CC(=O)Nc2ccc(S(=O)(=O)NC3CC3)cc2)cc1,-7%,14%,-2%,5%,3%,-3.4%,-3%,?
Cc1ccc(NC(=O)c2c(C(F)(F)F)nn(C)c2Cl)cc1C,1%,3%,-2%,-19%,6%,5.2%,-5%,3%
# (cont.)
SMILES,NS1 inh,StopGo reporter,Cruzain noTriton,RE007 growth inh,Marburg entry inh,Cruzain inh Det,SARS PLpro yeast,LASV entry inh
Cc1ccccc1-c1nnc(Cc2ccccc2)o1,-14%,45%[activator],-29%,-18%,?,-3.8%,-1%,?
COC(=O)[C@H](Cc1c[nH]c2ccccc12)NC(=O)NCc1ccc(OC)c(OC)c1,-1%,-16%,/,-9%,/,/,0%,/
O=C(CN(C1CCCCC1)S(=O)(=O)c1ccc(F)cc1)NCCCO,6%,11%,0%,-3%,-1%,0.3%,2%,11%
O=C(c1coc2ccc(O)cc12)C1CC1,-13%,30%[activator],-4%,-10%,0%,5.5%,-2%,1%
Cc1ccc(NC(=O)c2cc3ccccc3o2)nc1,/,?,/,-22%,?,/,-14%,5µM*
Cc1cccc(-n2c(C)cc(C)c(C#N)c2=O)c1,3%,-3%,/,10%,6%[46.1 µM],/,0%,?
CSc1ncc2c(=O)[nH]c(-c3ccccc3)nc2n1,2%,-7%,/,-6%,1%[46.1 µM],/,1%,?
CCC(=O)c1ccc(N2CCN(C(=O)c3ccc(F)cc3)CC2)c(F)c1,-3%,-24%,/,8%,-17%[46.1 µM],/,-1%,-8%[46.1 µM]
CCN(C(=O)Oc1ccccc1)c1ccc(C(O)(C(=O)OC)C(F)(F)F)cc1 (stereo not given),-4%,-15%,22%,18%,2%,-8.5%,24%,?
O=C(c1cc(-c2ccc(O)cc2)on1)N1CCCc2ccccc21,-171%,25%,-27%,-6%,/,-6.9%,-16%,/
CCc1ccc(NC(=O)c2ccc3ncsc3c2)cc1,-62%,/,1%,/,/,-0.8%,5%,/
Nc1nc(N2CCOCC2)n[nH]1,/,-4%,/,2%,?,/,-1%,15%[46.1 µM]
COC(=O)Cc1ccc(OC(=O)CCS(=O)(=O)c2ccc(Cl)cc2)cc1,/,0%,/,-9%,6%,/,-15%,0%
COC(=O)c1cc(OC)c(OC)cc1NC(=S)N1CCN(C/C=C/c2ccccc2)CC1,-12%,0%,4%,-4%,?,-6.8%,7%,-14%
COc1cc(NC(=O)COn2nnc3ccc(S(C)(=O)=O)cc32)cc(OC)c1,/,-13%,/,5%,14%[46.1 µM],/,6%,?
CCOc1ccc(C2NC(=O)NC(C)=C2C(=O)OC)cc1C (stereo not given),-6%,0%,-8%,7%,?,9.7%,-2%,-1%
